GIV Gai3 FP = inhibitors of GIV GBA-motif binding to rat Galpha-i3; P08753; Galpha-i3/FITC-GIV peptide fluorescence polarization, 90 min; hits give low values; scaled: aluminum fluoride 0%, vehicle 100%; percent of control (FP), % (no concentration beside the values); 0.42% of 210,000 active; AID 1224905;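 active = replicate mean at 85% of control or lower, very high polarization wells dropped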;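 also: wells of about 15 µL received 100 nL stock; the first replicate is given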
Target sequence (P08753 whole entry, looked up): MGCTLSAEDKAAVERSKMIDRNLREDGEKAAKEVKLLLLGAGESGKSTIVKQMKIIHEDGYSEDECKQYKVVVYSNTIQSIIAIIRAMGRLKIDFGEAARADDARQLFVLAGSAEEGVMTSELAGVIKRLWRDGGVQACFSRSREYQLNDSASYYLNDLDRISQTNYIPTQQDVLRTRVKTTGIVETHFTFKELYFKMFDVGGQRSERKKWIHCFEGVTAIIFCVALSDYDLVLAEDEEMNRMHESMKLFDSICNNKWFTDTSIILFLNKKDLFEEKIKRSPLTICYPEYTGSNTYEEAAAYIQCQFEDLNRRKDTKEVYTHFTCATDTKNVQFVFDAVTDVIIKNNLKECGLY
* = called active by the depositor. Not all compounds are listed; rates above refer to the full screens.

SMILES	GIV Gai3 FP
COc1cccc(N/C(SCc2ccccc2C)=C(/C#N)C(=O)NCc2ccccc2)c1	102.1
COc1ccc(NC(=O)C2CCN(S(=O)(=O)c3ccc(-c4noc(C5CC5)n4)cc3)CC2)cc1	107.9
CCC1(CC)Cc2ccccc2C(N2CCOCC2)=N1	117.8
O=C(Nc1ccccc1I)c1c(O)c2ccccc2[nH]c1=O	99.7
O=C(NCCN1CCCCC1)C1CCN(c2cncnc2N2CCOCC2)CC1	104.5
O=C(Nc1cccc(C(=O)N2CCCC(C(=O)NCC3CCCO3)C2)c1)c1ccccc1 (centres undefined)	111.2
CN(C)c1oc(COc2ccc(Cl)cc2Cl)nc1S(=O)(=O)c1ccccc1	117.8
O=C(NCc1cccnc1)c1nc(CCS(=O)(=O)c2ccccc2)no1	102.5
COc1ccc(NC(=O)CSc2nc3[nH]ncc3c(=O)n2-c2ccc(Br)cc2)c(OC)c1	99.2
O=C(O)C1CSC(c2ccccc2F)N1 (centres undefined)	99.4
CCCN1C=NS(=O)(=O)c2cc(C(=O)NC(C)C)ccc21	105.6
COc1ccc(-n2nc(C(=O)NCc3ccco3)c3ccccc3c2=O)c(OC)c1	101.1
Cc1cc(N2CCC(C)CC2)n2ncnc2n1	99.6
COc1ccc(C2C=C(c3ccc(Cl)cc3)Nc3nc4ccccc4n32)cc1 (centres undefined)	103.6
CCc1cccc(-n2nnnc2N2CCN(C(=O)Nc3ccc(Br)c(C)c3)CC2)c1	106.2
Cc1ccc(Nc2nc3nonc3nc2Nc2c(C)n(C)n(-c3ccccc3)c2=O)cc1C	106.8
Cc1ccc(Cn2nc3c(S(=O)(=O)N4CCCC4)cccn3c2=O)c(C)c1	105.0
COc1ccc(C(O)(C(=O)NN(c2ccccc2)c2ccccc2)c2ccc(OC)cc2)cc1	105.3
CCOC(=O)c1c(CSc2ccc(Cl)cc2)oc2ccc(O)c(CN(C)C)c12	99.4
Cc1ccc(S(=O)(=O)N2CCC3(CC2)NCCN=C3NCc2ccc(Cl)cc2)cc1	100.2
CC1(C)Cc2cccc(OCC(=O)N3CCN(c4ncnc5c4nnn5-c4ccccc4)CC3)c2O1	101.0
COc1ccc(/C=C2\N=C(c3ccc(Cl)cc3)N(c3ccc(C)cc3Br)C2=O)cc1OC	110.7
Cc1cccc(NC(=O)C(Cc2c[nH]c3ccccc23)NC(=O)OCc2ccccc2)c1C (centres undefined)	121.4
CCc1ccc(C2(O)CC(C(F)(F)F)=NN2C(=O)c2ccccn2)cc1 (centres undefined)	109.7
COc1cccc(C(=O)N2c3ccccc3Sc3ccc(C(F)(F)F)cc32)c1	106.2
Following part
SMILES	GIV Gai3 FP
COc1ccc(NC(=O)N2CCN(c3cc(-c4cc(F)ccc4OC)ncn3)CC2)cc1OC	100.8
COc1ccccc1-n1c(CNC(=O)c2cccc([N+](=O)[O-])c2C)nnc1SCC(=O)N1CCc2ccccc21	101.4
CNC(=O)CCc1nc2ccccc2n(CC(=O)NCc2ccc(F)cc2)c1=O	98.2
COc1ccc(NC(=O)c2cc3nc(-c4ccc(OC)c(OC)c4)cc(C(F)(F)F)n3n2)cn1	110.2
Cc1cc(C)c(C2N(c3ccccc3)CCN2c2ccccc2)c(C)c1	102.2
COC(=O)C1=C(C)Nc2nc(SC)[nH]c(=O)c2C1c1cccc([N+](=O)[O-])c1 (centres undefined)	107.9
CCOC(=O)N1CCN(C(=O)c2ccc3c(=O)n(-c4ccccc4)c(SCC(=O)C(C)(C)C)nc3c2)CC1	109.6
COc1ccc(NC(=O)c2sc3nc4c(cc3c2N)C(=O)CC(C)(C)C4)cc1	99.3
CC(C)N1CCN(S(=O)(=O)c2cc(-c3nnc(C4CCCC4)o3)co2)CC1	94.8
CCC(=O)Nc1ccc(-c2cc(C(=O)NC(C)CC)c3ccccc3n2)cc1 (centres undefined)	103.7
CCS(=O)(=O)N1CCC(n2cnc3cc(F)ccc3c2=O)CC1	104.8
CCOC(=O)c1c(NC(=O)c2ccc(N3C(=O)CCC3=O)cc2)sc2c1CCN(C(C)C)C2	126.3
COCCNC(=O)c1ccc2c(c1)nc1n2CCC(C)C1 (centres undefined)	97.8
Cc1cc2c(cc1C)CSC(c1c(O)ccc3ccccc13)SC2	109.3
COc1cc(C2Nc3ccccc3NC3=C2C(=O)CC(c2cccs2)C3)cc(OC)c1OC (centres undefined)	99.4
CC1=NN(c2ccc(Cl)c(C(=O)O)c2)C(=O)/C1=C\c1ccc(-c2cccc([N+](=O)[O-])c2)o1	100.9
Cc1csc(-c2cc(S(=O)(=O)Nc3ccc(F)c(Cl)c3)c(C)s2)n1	101.5
CN1CCCN(C(=O)c2nc(C3CCCC3)nc3c2OCCO3)CC1	100.1
COCCNc1nc(SCC(=O)Nc2cccc(C(F)(F)F)c2)nc2ccccc12	110.3
CC(=O)c1cccc(N2C(=O)C3C4C=CC(CO)(O4)C3C2=O)c1 (centres undefined)	115.9
COC(=O)c1ccc2c(=O)n(-c3cccc(F)c3)c(N3CCSC3)nc2c1	102.1
CCCn1c(=O)c(-c2ccc(C(=O)NCCCN3CCCC3)cc2)nc2ccccc21	95.9
CCOC(=O)c1c(S(=O)(=O)N2CCC(C(=O)Nc3cccc4c3CCCC4)CC2)c(C)n(C)c1C	106.9
CCCOc1c(C(=O)OC)sc2ccc(NC(=O)CCc3nc(-c4ccc(C)cc4)no3)cc12	101.3
O=C(NCC1CCCO1)Nc1cccn2c(C3CCC3)nnc12 (centres undefined)	97.3
The list continues:
SMILES	GIV Gai3 FP
COC(=O)c1ccccc1NC(=O)Cn1cc(-c2nc(-c3ccc(C)cc3)no2)ccc1=O	105.8
CCOC(=O)c1c(NC(=O)c2ccccc2C(=O)O)sc2c1CCN(C)C2	104.4
Cc1cccc(-c2nc(-c3ccccc3)c(-c3ccc(Cl)cc3)[nH]2)c1	116.7
COc1ccc(C(=O)N2c3ccccc3N3C(c4c(C)c(C)c(Cl)c(C)c4C)=NON23)cc1	106.3
COc1ccc(N2C(=O)/C(=C/c3ccc([N+](=O)[O-])cc3)C=C2c2ccccc2)cc1	105.2
O=C(c1ccccc1)N1CCN(Cc2cc(=O)n3nc(-c4cccc(F)c4)sc3n2)CC1	101.7
COc1ccc(-n2c(C)nsc2=NC(=Nc2ccc(C)cc2)c2ccccc2)cc1	104.9
CN(C(=O)CN(C)S(=O)(=O)c1cc2c(cc1Cl)NC(=O)CO2)C1CCCCC1	105.6
Cc1c(N(CC(=O)N/N=C/c2ccccc2Cl)S(=O)(=O)c2ccccc2)c(=O)n(-c2ccccc2)n1C	97.8
CN(C)CCNc1nc(Nc2ccc3c(c2)OCO3)c2cnn(-c3ccccc3)c2n1	104.8
CC(=O)NC1=NC(=O)/C(=C/c2ccc(OCc3ccccc3F)cc2)S1	106.3
Oc1cccc(C2Nc3cccc4cccc(c34)N2)c1	118.9
Clc1cccc(-c2nnc(-c3nc(NC4CCCCC4)c4ccccc4n3)o2)c1	104.0
CCOCCn1cnc2sc(C(=O)NCCN3CCOCC3)c(C)c2c1=O	110.7
COC(=O)C1=CN(CCC23CC4CC(CC(C4)C2)C3)C=C(C(=O)OC)C1c1cccc(Br)c1	108.7
COC(=O)C1=CN(Cc2ccc(Cl)cc2)C=C(C(=O)OC)C1c1cc(OC)c(OC)c(OC)c1	103.9
CCc1cc(C2CCCN2C(=O)c2c(C)noc2C)on1 (centres undefined)	96.9
CN(CCO)c1cc(N2CCCCC2)c2nonc2c1[N+](=O)[O-]	99.1
COc1ccc(/C=C/c2nc(Cn3cnc(S(=O)(=O)N4CCCCC4)c3)no2)cc1OC	104.3
CC(=O)N1c2ccccc2N(Cc2ccccc2)C(=O)CC1C (centres undefined)	103.7
CCCCOc1ccc(-c2nc(C=Nc3ccc(C)cc3Br)c(O)o2)cc1	107.3
CCN(CC)C(=O)CSc1nnc2c(n1)[nH]c1ccccc12	106.5
Cc1ccc(-c2nc(CSCC(=O)N3CC(C)OC(C)C3)no2)cc1 (centres undefined)	103.4
CN(C)c1cc(N2CCCC(NC(=O)c3ccoc3)C2)ncn1 (centres undefined)	100.3
O=C1C2C3C=CC(C3)C2C(=O)N1c1ccc(-c2nc3ccccc3c(=O)o2)cc1 (centres undefined)	109.3
The list goes on.
SMILES	GIV Gai3 FP
Cc1cc(C)c(S(=O)(=O)N2CCCC2c2nc(-c3ccccc3)no2)cc1C (centres undefined)	96.3
CCOC(=O)C1=C(O)/C(=C/c2ccc(OC)cc2)SC1=Nc1ccccc1	106.0
Cn1c(C2CCN(C(=O)c3cc4c(s3)CCCC4)C2)nc2cccnc21 (centres undefined)	109.0
COc1ccc(CNc2c(C(=O)Nc3ccc(F)cc3)cnc3c2c(C)nn3-c2ccccc2)cc1	105.7
O=C(c1ccccc1)N1N=C(C(F)(F)F)CC1(O)c1cccc(Br)c1 (centres undefined)	104.6
O=C(Nc1cccc(Cl)c1)c1nnc(C2CCCN(C(=O)NC3CCCC3)C2)s1 (centres undefined)	100.7
CCCS(=O)(=O)c1c(S(=O)(=O)CCC)c2ccc(C(C)=O)cn2c1C(=O)c1ccc(Br)cc1	110.6
O=C(CCn1nnc2cc(-c3noc(C4CCCC4)n3)ccc21)N1CCCC1	100.4
C=CCOC(=O)C1=C(C)N=c2s/c(=C3\C(=O)N(C)c4ccccc43)c(=O)n2C1c1ccc(OC(=O)c2ccco2)cc1 (centres undefined)	96.6
Cc1cc(Sc2ccc(NC(=O)Nc3ccc(F)c(Cl)c3)cc2)n2ncnc2n1	107.6
COc1cc(OC)cc(-c2nc3c4ccccc4n(CC(=O)c4c[nH]c5ccccc45)c(=O)n3n2)c1	107.9
COc1cc(-c2nc3sc4c(c3c(=O)[nH]2)CCCC4)cc(Cl)c1OCCOc1ccc(C)c(C)c1	106.6
Cc1ccc(N2CC(C(=O)NCc3nnnn3-c3ccccc3)CC2=O)cc1C (centres undefined)	99.2
COc1ccc(C(=O)N2N=C(C(F)(F)F)CC2(O)c2ccc(F)cc2)cc1 (centres undefined)	124.0
O=C1CC(c2ccc(F)cc2)c2cc(Br)c3ccccc3c2N1 (centres undefined)	113.1
COCCOC(=O)C1=C(N)OC2=C(C(=O)CC(C)(C)C2)C1c1ccc(Cl)cc1 (centres undefined)	115.3
COc1cc(OC)cc(-c2nc(-c3ccccc3)c(-c3cccc4ccccc34)[nH]2)c1	110.1
O=C(/C=C/c1ccccc1)Nc1cc(C(=O)N2CC=C(c3ccccc3)CC2)ccc1N1CC2CC(C1)c1cccc(=O)n1C2 (centres undefined)	107.0
Cc1ccc(N2C(=O)CS(=O)(=O)C2c2ccc(Br)cc2)cc1F (centres undefined)	122.9
CC1CCC2(CC1)Nc1ccccc1NC2=NCc1ccc(Cl)cc1 (centres undefined)	93.3
CCOC(=O)N1CCN(C(=O)c2ccc(N3CC4CC(C3)c3cccc(=O)n3C4)c(NC(=O)c3ccc(OC)cc3)c2)CC1 (centres undefined)	104.2
O=C(NCCc1ccccc1)NCc1nnnn1-c1ccccc1	94.8
Cn1cnc2ccc(-c3noc(-c4ccc(F)cc4)n3)cc21	99.9
CCOC(=O)c1[nH]c(C)c(CCC(=O)N2CCCC(C(=O)NCCc3c(C)noc3C)C2)c1C (centres undefined)	107.1
O=C(CSc1nc2ccccc2o1)n1c2c(c3ccccc31)CCCC2	105.6

Structures shown so far with a CF3 group:
SMILES	GIV Gai3 FP
CCc1ccc(C2(O)CC(C(F)(F)F)=NN2C(=O)c2ccccn2)cc1 (centres undefined)	109.7
COc1cccc(C(=O)N2c3ccccc3Sc3ccc(C(F)(F)F)cc32)c1	106.2
COc1ccc(NC(=O)c2cc3nc(-c4ccc(OC)c(OC)c4)cc(C(F)(F)F)n3n2)cn1	110.2
COCCNc1nc(SCC(=O)Nc2cccc(C(F)(F)F)c2)nc2ccccc12	110.3
O=C(c1ccccc1)N1N=C(C(F)(F)F)CC1(O)c1cccc(Br)c1 (centres undefined)	104.6
COc1ccc(C(=O)N2N=C(C(F)(F)F)CC2(O)c2ccc(F)cc2)cc1 (centres undefined)	124.0

A second format for two compounds above.
COc1cc(-c2nc3sc4c(c3c(=O)[nH]2)CCCC4)cc(Cl)c1OCCOc1ccc(C)c(C)c1
  GIV Gai3 FP = 106.6
CCCS(=O)(=O)c1c(S(=O)(=O)CCC)c2ccc(C(C)=O)cn2c1C(=O)c1ccc(Br)cc1
  GIV Gai3 FP = 110.6

Given with each value named: 3 of the compounds above
CC1CCC2(CC1)Nc1ccccc1NC2=NCc1ccc(Cl)cc1 (centres undefined)
  GIV Gai3 FP: 93.3

O=C(/C=C/c1ccccc1)Nc1cc(C(=O)N2CC=C(c3ccccc3)CC2)ccc1N1CC2CC(C1)c1cccc(=O)n1C2 (centres undefined)
  GIV Gai3 FP: 107.0

Cc1cc(C)c(S(=O)(=O)N2CCCC2c2nc(-c3ccccc3)no2)cc1C (centres undefined)
  GIV Gai3 FP: 96.3

Next results follow:
SMILES	GIV Gai3 FP
N#CC1=C([S-])N[C@@](O)(c2ccccc2)[C@H]([n+]2ccccc2)[C@H]1c1ccccc1F	126.3
N#CC1=CN(c2ccc(Cl)cc2)c2cc(Cl)ccc2S1(=O)=O	101.8
CC(=O)N(CN1C(=O)C2CCC(C)CC2C1=O)c1ccc(C)c(Cl)c1 (centres undefined)	110.0
Cc1cc(C2CCCN2Cc2cc(Br)ccc2F)on1 (centres undefined)	103.9
CN(c1ccc(F)cc1)S(=O)(=O)c1ccc2[nH]cc(C(=O)NCCCN3CCOCC3)c(=O)c2c1	98.6
COc1ccc(C2CC(C(F)(F)F)n3nc(C(=O)Nc4ccccc4C(F)(F)F)cc3N2)cc1OC (centres undefined)	104.1
O=C(NCCc1csc(-c2ccccc2)n1)[C@H]1CCCN1C(=O)c1ccccc1	101.1
CC(C)CCNC(=O)c1cn(C)nc1S(=O)(=O)N1CCC(C)CC1	110.4
COC(=O)c1ccc2c(=O)n(CCc3ccc(S(N)(=O)=O)cc3)c(SCC(=O)Nc3cc(C)on3)nc2c1	98.4
CC(=O)C1=NN(c2ccccc2)C(c2ccccc2OCc2ccc(Cl)cc2)N1C(C)(C)C (centres undefined)	113.1
CS(=O)(=O)Nc1ccc(-c2noc(CNC(=O)c3ccccc3)n2)cc1	97.8
CCn1c(SCc2ccccc2)nnc1-c1ccc2c(c1)OCCCO2	103.1

Compound activity from PubChem BioAssay.
